NPYLR7 ag = activates Aedes aegypti NPYLR7 receptor. 270,000 compounds, 0.15% hits. activation, % at 10 µM. HEK293T NPYLR7/Galpha15, GCaMP6s calcium fluorescence. AID 1259423; in the data active = activation above about 40%;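 also: 0% = vehicle and 100% = reference agonist at the receptor; some compounds past the cut are filed as inactive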
NPYLR7 ag max-min = also measured in NPYLR7 ag; calls as there; activation, %; measured here: Max-Min RFU normalised activation; some inactives read as strong as hits;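 span of the calcium signal over five minutes; 0% = vehicle and 100% = native peptide agonist; compound fluorescence can raise it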
* hit, by the source's call; & = joins results of further samples. These rows are one share of the data (hit frequency here may not be typical).

molecule	NPYLR7 ag max-min	NPYLR7 ag
Nc1nc(CSc2nnc3c(n2)[nH]c2ccccc23)cs1	-5	1
Cc1ccc(CN(Cc2ccccc2)C(=O)CN(CCCN2CCOCC2)C(=O)c2cccc(Br)c2)o1	11	11
O=C(NCCCl)NCc1nnnn1-c1ccc(Cl)cc1	-5	-5
CCOC(=O)CSc1nc2c(cc1C#N)CCCC2	-4	-2
COC(=O)c1ccc(N=Cc2nc(-c3ccc(Br)cc3)oc2O)cc1	-8	-4
C/C(=N/NC(=O)C(c1ccccc1)c1ccccc1)c1cccc(NC(=O)C(C)C)c1	6	-1
COc1ccc2oc(=O)n(C3CCN(C(=O)c4cc(C)nn4C(C)(C)C)CC3)c2c1	31	35
CCOC(=O)c1cc(-c2ccc(N3CCN(C(=O)c4ccco4)CC3)cc2)n(-c2ccccn2)n1	9	16
Cc1c(NC(=O)CNC(=O)c2c(F)cccc2Cl)cccc1N1CCOC1=O	4	8
CN(Cc1cnccn1)Cc1c(C(=O)N2CCc3ccccc3C2)nc2ccc(Cl)cn12	-3	-6
O=C(NCc1ccccc1)c1c(O)c2ccccc2[nH]c1=O	-6	-3
CCCOC(=O)c1ccc(NC(=O)c2c(-c3ccccc3Cl)noc2C)cc1	2	4
CCOC(=O)c1cc(-c2ccccc2)sc1NC(=O)CCC(=O)OC	-1	4
Cc1nc2nc(N)nn2c(C)c1CCC(=O)NC(C)CCCC(C)C (stereo not drawn)	0	-1
CNC(=O)CN(C)c1ncnc2sc3c(c12)CCCC3	11	7
COc1ccc2sc(N(CCN3CCOCC3)C(=O)/C=C/c3cccs3)nc2c1	1	3

Entries from the list above with two or more sulfur atoms, in the order listed:
molecule	NPYLR7 ag max-min	NPYLR7 ag
Nc1nc(CSc2nnc3c(n2)[nH]c2ccccc23)cs1	-5	1
COc1ccc2sc(N(CCN3CCOCC3)C(=O)/C=C/c3cccs3)nc2c1	1	3

Single records, as listed above. Order of screens: NPYLR7 ag max-min	NPYLR7 ag
Profile of `CCCOC(=O)c1ccc(NC(=O)c2c(-c3ccccc3Cl)noc2C)cc1` : 2	4
Profile of `Cc1c(NC(=O)CNC(=O)c2c(F)cccc2Cl)cccc1N1CCOC1=O` : 4	8

The list goes on.
molecule	NPYLR7 ag max-min	NPYLR7 ag
FC(F)(F)Oc1cccc(CC2CNC2)c1	8	1
Cc1cc(C)cc(NC(=O)CSc2ccc3nnc(CCNS(=O)(=O)c4ccccc4)n3n2)c1	-4	4
CCn1c(C2CCN(C(=O)Cc3nc4ccccc4[nH]3)CC2)nn(C)c1=O	-3	1
CCOC(=O)C1CCCN(C(=O)c2coc(CN(CCc3c[nH]c4ccccc34)Cc3ccc(OC)cc3OC)n2)C1 (stereo not drawn)	0	-13
CC(=O)N1CCC(Oc2ccc(Cl)cc2C(=O)NCc2cccc(C)n2)CC1	3	16
COc1ccc(Cl)cc1NC(=O)C(C)N1c2ccccc2CC1C (stereo not drawn)	4&6	6&7
Cc1ccccc1-c1nc(COC(=O)c2nnn(-c3ccc(F)cc3)c2C)c(C)o1	-6	4
O=C(NCCc1cccnc1)NC1CCSc2ccc(Cl)cc21 (stereo not drawn)	-3	1
NC(=O)[C@H](Cc1c[nH]c2ccccc12)NC(=O)C1CC1(c1ccccc1)c1ccccc1 (stereo partly drawn)	6	23
CCCNC(=O)N(CC(=O)N1CCc2sccc2C1COc1cccc(OC)c1)C1CC1 (stereo not drawn)	-1	-4
CCCc1noc2nc(C3CC3)cc(C(=O)N3CCCC(C)CC3)c12 (stereo not drawn)	-1	1
O=c1ccc(-c2ccncc2)nn1CCCNS(=O)(=O)/C=C/c1ccccc1	3	6
O=C1c2ccccc2-c2c1cccc2C(=O)N1CCN(Cc2cc(=O)c(OCc3cccc(F)c3)co2)CC1	16	30
CC(C)Cc1nc(-c2cc(C(C)C)[nH]n2)n(-c2ccccn2)n1	3	3
Cc1c(C(=O)NCCc2ccccn2)cc(-c2ccccc2)n1-c1ccc(F)cc1	28	21
CSc1nnc(Nc2cccc(NC(C)=O)c2)s1	-1	4
Cc1cccc(-n2ncc(C(=O)NC3CCN(Cc4ccccc4)C3)c2C)c1 (stereo not drawn)	-1	5
Cc1csc(=O)n1CC(=O)Nc1ccc(Cl)c(Cl)c1	-14	-15
O=C(CSc1nc2[nH]ncc2c(=O)[nH]1)N1CCc2ccccc21	-3	-1
Cc1ccc(Cc2nnc(Nc3cccc(C)c3)[nH]c2=O)cc1	6	13
CC(=O)c1c(C)nn(CC(=O)N(C)C(C)c2cccs2)c1C (stereo not drawn)	2	6
CC(Oc1ccccc1)C(=O)N[C@@H]1C(=O)N2[C@@H]1SC(C)(C)[C@@H]2C(=O)O (stereo partly drawn)	49*	62*
CC(C)Cn1c(N)c(C(=O)CN(C)Cc2ccc(Cl)s2)c(=O)n(C)c1=O	5	11
C=CCN1C(=O)OC(C)(CCC=C(C)C)C1(C)O (stereo not drawn)	4	10
Cc1cc(OC(=O)C23CC4CC(CC(C4)C2)C3)c([N+](=O)[O-])c(=O)[nH]1	2	3
CCc1csc(CNC(=O)C(C)n2cnc3ccccc32)n1 (stereo not drawn)	13	14
O=C(CCc1nc(-c2ccc(F)cc2)no1)Nc1ccc2c(c1)S(=O)(=O)C=C2	5	9
O=C(Cn1ncn2nc(-c3ccc(F)cc3)cc2c1=O)NCCc1ccccc1	-16	-10
CCOc1ccc(C(=O)Nc2c(C)nc3scc(C)n3c2=O)cc1	0	13
O=C(Nc1cccnc1)c1ccc(-c2ccccc2CN2CCOCC2)o1	0	-1
COc1ccc(S(=O)(=O)N(CC(=O)N2CCC(C)CC2)c2ccc(C)cc2)cc1OC	-1	-3
CN1[C@@H](c2ccccc2Cl)[C@@H](C(=O)NCc2cccnc2)C[C@@]1(C)C(=O)O	1	10
COCC(NC(=O)NCc1cccc(C#N)c1)c1ccco1 (stereo not drawn)	2	2
CCN(CC1COc2ccccc2O1)C(=S)NC1CC2CCC1C2 (stereo not drawn)	3&-3	3&-2
O=C(Nc1cccc(-c2cccc(-c3ccc(F)cc3)n2)c1)c1ccc(Cl)cc1	0	3
COc1ccc(CCN(C)c2cc(Oc3cccc(Cl)c3)ncn2)cc1OC	9	5
Cc1cc(C)c2nc(C(F)(F)F)[nH]c(=O)c2c1	-5	-3
Cc1cc(Oc2cc(N3CCN(Cc4ccc(F)cc4)CC3)ncn2)ccc1Cl	11	7
Cc1ccc(NC(=O)NC(C)c2ccc(-n3ccnc3)cc2)cc1 (stereo not drawn)	-2	-1
COc1ccc(N)cc1S(=O)(=O)NC1CC1	14	15
CC(SCc1nc(N)nc(N)n1)C(=O)N(C(C)C)C(C)C (stereo not drawn)	7	4
COc1cc(OC)c(OC)cc1C=C(C#N)C(N)=S	2	0
N#CC1C(=N)OC2=C(C(=O)CCC2)C1c1ccco1 (stereo not drawn)	-16	-9
O=C(NC(c1ccc2c(c1)OCO2)c1ccccn1)C1CCN(CCOc2ccccc2)CC1 (stereo not drawn)	-5	6
Cc1sc(NCc2ccccc2)nc1-c1ccc(Cl)cc1	1	5
O=C(O)C1CC(=O)N(C2CCCC2)C1 (stereo not drawn)	-7	-7
CCOc1ccccc1NS(=O)(=O)c1cn(C)c(=O)n(C)c1=O	-1	-1
CC(Cl)C(=O)Nc1cc(-c2onc3c2CCCC3)cc(C(F)(F)F)c1 (stereo not drawn)	25	23

The last three entries of the part before are carried over, then new ones follow:
molecule	NPYLR7 ag max-min	NPYLR7 ag
O=C(O)C1CC(=O)N(C2CCCC2)C1 (stereo not drawn)	-7	-7
CCOc1ccccc1NS(=O)(=O)c1cn(C)c(=O)n(C)c1=O	-1	-1
CC(Cl)C(=O)Nc1cc(-c2onc3c2CCCC3)cc(C(F)(F)F)c1 (stereo not drawn)	25	23
COc1ccc(NC(=O)N2CCN(C(c3ccccc3)c3ccc(Cl)cc3)CC2)c(C)c1 (stereo not drawn)	26	21
Cc1ccc(C(CC(=O)NCc2ccc(F)cc2)c2c[nH]c3ccccc23)c(C)c1 (stereo not drawn)	32	27
O=C(Cc1ccccc1)NC1CCN(c2ccccc2C(=O)N2CCN(C3CCCCCC3)CC2)CC1	39	22
O=C(NCCc1ccccc1)N1CCCC(N2CCN(Cc3ccc4c(c3)OCO4)CC2)C1 (stereo not drawn)	-3	-1
COc1ccc(Cc2nnc(C34CC5CC(C3)CC(n3cnc(Cl)n3)(C5)C4)o2)cc1	40	1
CC1=NC2=C(C(=O)CC(c3ccccc3)C2)C(c2ccc(F)cc2)C1C(=O)OC1CCCCC1 (stereo not drawn)	0	6
CCn1ccc2cc(NC(=O)c3cccc(C(F)(F)F)c3)ccc21	-3	-2
CSc1ncc(CN2CCCC(CCC(=O)N3CCOCC3)C2)cn1 (stereo not drawn)	6	4
O=C(NCCc1cccs1)N1CCN(c2nccnc2NS(=O)(=O)c2ccc(Oc3ccccc3)cc2)CC1	-10	-4
COc1ccc(C)cc1N1CCN(C(=O)c2cccs2)C(C)C1=O (stereo not drawn)	-10	-10
CCN(CC)C(=O)c1c(C(F)(F)F)nn(C2CCCN(C)C2)c1C (stereo not drawn)	0	0
Oc1c(C(c2ccc(Br)cc2)N2CCCC2)ccc2cccnc12 (stereo not drawn)	-2	1
Nc1nc(-c2ccccn2)cs1	6	4
Cc1cccc(-c2ccc(NC(=O)C3CCN(C(=O)c4cnsn4)CC3)cc2)c1	-1&8	-2&14
CC1CN(c2nc(-c3ccccc3)nc3c2CN(C(=O)Nc2ccccc2C(F)(F)F)CC3)CC(C)O1 (stereo not drawn)	-9	-9
COc1ccc(C2CC(c3ccccc3)=NN2c2ccccc2OC)cc1 (stereo not drawn)	-5	-2
O=S1(=O)CCC(c2nnc(C3(c4cccc(Br)c4)CCOCC3)o2)C1 (stereo not drawn)	4	6
CCc1ccc(-c2nc(C(N)=O)c3[nH]c(=O)n(-c4ccc(C)cc4)c3n2)cc1	7	2
COc1cc(C)ccc1S(=O)(=O)NC(=O)Cn1nnc(COc2ccc3c(c2)CCCC3)c1C	-1	2
O=C(CN1CCC(n2c(=O)[nH]c3ccccc32)CC1)N(c1ccccc1)C1CCS(=O)(=O)C1 (stereo not drawn)	-2	-1
Cc1nc(C)c(-c2ccc(SCC(=O)N3CCOCC3)nn2)s1	-13	-11
COC(=O)c1cc(N)c(/C=C/c2cccs2)s1	178*	184*
CNc1ccc(-c2ccc(C(=O)NCCC#N)cc2)cn1	1	5
COCCN1CCCC[C@]2(C[C@H](C(=O)O)[C@H](c3ccco3)N2C(=O)Cc2ccc(F)cc2)C1=O	10	6
CC1CC(C)CN(C(=O)C(C)N2CC(OCC(=O)N(C)C)C2)C1 (stereo not drawn)	0	2
CSc1n[nH]c(NCc2ccc(C)cc2)n1	-7	-7
CCc1ccc(C(=O)Nc2c(-c3ccc(F)cc3)nc3ccccn23)cc1	2	-5
CCOC(=O)c1ccc2c(c1)nc(SCc1c(F)c(F)c(OC)c(F)c1F)n2Cc1ccccn1	4	6
C=C(C)CNC(=S)NN=Cc1ccco1	-17	-8
CCC(C)C(=O)N(Cc1nc2cc(C)ccc2o1)Cc1cc(F)ccc1F (stereo not drawn)	3	3
CCNC(=O)NC(=O)CSc1nnc(C(C)Oc2ccccc2F)o1 (stereo not drawn)	0	0
O=c1[nH]nc(CCn2ccnc2-c2ccncc2)[nH]1	4	5
O=C1CCCC2=C1C(c1ccccc1F)NC(=S)N2 (stereo not drawn)	2	4
O=C1NC(=O)C(Cc2ccccc2F)(C2CCNCC2)N1 (stereo not drawn)	16	27
COc1cccc2c1N(C(=O)N1CCCC(C(=O)O)C1)CCC2 (stereo not drawn)	-3	1
COc1ccc(C)cc1-n1ccc(C(=O)N2CC(n3ccnc3)C2)n1	-6	1
CC1Oc2ccccc2OC1C(=O)Nc1cccc(C(F)(F)F)c1 (stereo not drawn)	-9	-8
COc1ccccc1CN1CCNC(=O)C1CC(=O)N1CCCN(c2ncccn2)CC1 (stereo not drawn)	-5	-4
Cc1cc(N2CCN(C(=O)c3cc(CC(C)C)nn3C)CC2)nc(N)n1	-1	2
O=C(c1cc2ccccc2o1)N1CC(=O)N(C2CCCCC2)CC(OCc2ccncc2)C1 (stereo not drawn)	4	13
CNCC(=O)N1CCNC(=O)C1c1cccc(F)c1 (stereo not drawn)	-1	3
Cc1noc(C)c1CC(=O)N1CCN(C(=O)c2cccc(C(F)(F)F)c2)CC1	-4	-4

Quoted at random: 2 entries already listed
molecule	NPYLR7 ag max-min	NPYLR7 ag
O=C(CN1CCC(n2c(=O)[nH]c3ccccc32)CC1)N(c1ccccc1)C1CCS(=O)(=O)C1 (stereo not drawn)	-2	-1
Cc1c(NC(=O)CNC(=O)c2c(F)cccc2Cl)cccc1N1CCOC1=O	4	8

From PubChem
